From PubChem
PK Bst: Pyruvate Kinase. partly purified Bacillus stearothermophilus pyruvate kinase, luminescence ATP production; ribose 5-phosphate activator present at AC10. Potency, µM. 1.2% of 51,000 active. AID 361, 2006; in the data active means potency below about 11 µM; inconclusive means mostly about 12 µM to 25 µM; inactive means weaker than that;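 the screen sought inhibitors and activators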;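 further: potency means the concentration at half of the fitted maximal effect; scaled between full activation by ribose 5 phosphate and full inhibition by luteolin; about four in five hits inhibit and the cells do not say which; series up to 57 µM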
YjeE inh: qHTS Assay for Inhibitors of YjeE | tRNA threonylcarbamoyladenosine biosynthesis protein TsaE (Escherichia coli (strain … | purified YjeE, fluorescence polarisation of a bound ADP probe | Potency, µM | 0.05% of 71,000 active | AID 605, 2007; active = well fitted falling curve; inconclusive = weaker or top-dose-only fall, or a rising curve; inactive = flat or poorly fitted curve;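 further: top concentration of the series not given in the record; excess ADP was the control for the full effect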
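Fluorescence polarization of a BODIPY Texas Red–ADP probe (2 uM) bound to purified YjeE (10 uM) was read after 15 min room-temperature incubation with compounds. Loss of polarization marks inhibitors; ADP serves as titrated control.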
An asterisk follows results filed as active; i = inactive; ? = inconclusive; nt = no result given. Not all compounds are listed; the hit share may differ from the screen's.

SMILES | PK Bst | YjeE inh
Cc1cnc(CNc2ncncc2-c2ccccc2Cl)cn1 | nt | i
CCN(CC)S(=O)(=O)c1ccc(C(=O)OCC(=O)N2CCN(C(=O)c3ccco3)CC2)cc1 | >57 | i
CC1(C)C(=O)Nc2ccccc2N1C(=O)COC(=O)C12CC3CC(CC(O)(C3)C1)C2 | >57 | i
CC(=O)c1c(N2CCOCC2)nc(=S)n(Cc2ccccc2)c1C | >57 | i
CCN1C(=O)C=CC1=O | nt | i
CC1=C(C(=O)NCc2ccccc2)C(c2cccnc2)n2ncnc2N1 (configuration not stated) | >57 | i
CC(=O)Nc1cnc2ccccc2n1 | i | nt
CCOC(=O)N1CCN(C(=O)c2cnn3c(C)c(Cc4ccc(C)cc4)c(C)nc23)CC1 | >57 | i
COc1ccccc1OCCSc1nnc(C)n1-c1ccccc1 | >57 | i
CC(C)CC(OC(=O)c1cccs1)C(=O)NCc1cccs1 (configuration not stated) | >57 | i
COc1ccc(N2CCN(c3nc4c(c(=O)n(C)c(=O)n4C)n3Cc3ccccc3)CC2)cc1 | >57 | i
COc1ccc(C(=O)Nc2ccc(-c3ccc(C)o3)cc2)cc1S(=O)(=O)N1CCOCC1 | >57 | i
CCOC(=O)c1cc2occc2n1CC(=O)NC1CCCCC1C (configuration not stated) | >57 | i
COc1cc(C(=O)N2CCC(NC(=O)C(Cc3ccccc3)NC(C)=O)CC2)cc(OC)c1OC (configuration not stated) | >57 | i
C=CCSc1nnc(NC(=O)CSc2ccccn2)s1 | >57 | i
COc1ccc(C(=O)NCCn2ccc3ccccc32)cc1 | nt | i
COc1cccc(C(=O)Nc2nc(-c3ccc(S(=O)(=O)N4CCOCC4)cc3)cs2)c1 | >57 | i
COc1cccc(-c2cc(NCc3cccnc3)ncn2)c1 | nt | i
NC(N)=Nc1ccc(-c2ccc(N=C(N)N)cc2)cc1 | nt | i
CCn1c2ccccc2c2cc(CN3CCN(C(=O)c4ccco4)CC3)ccc21 | nt | i
CCCCCCc1c(C[C@H](N)C(=O)O)o[nH]c1=O | nt | i
O=C(c1cc(-c2ccc3c(c2)OCO3)on1)N1CCN(c2ccc(F)cc2)CC1 | >57 | i
O=C(COc1ccccc1)c1cn(CC(=O)N2CCOCC2)c2ccccc12 | nt | i
CCCOc1ccc(NC2=CC(=O)CC(C)(C)C2)cc1 | nt | i
CC(C)N(C(=O)CSc1nnc(CN2CCCCCC2=O)n1-c1ccccn1)C(C)C | >57 | i
CCC(C)C(=O)Nc1cc(OC)c(OC)cc1C(=O)O (configuration not stated) | >57 | i
[O-][n+]1onc2c1CCc1nnccc1-2 | >57 | i
O=C(CCCn1c(=O)oc2ccccc21)Nc1cccnc1 | >57 | i
COC(=O)c1oc2ccc(Br)cc2c1NC(=O)c1ccccc1 | >57 | i
COC(=O)c1ccccc1NC(=O)CSc1ccccn1 | >57 | i
CCC(C)NC(=O)CCCCCn1c(=O)[nH]c2cc(OC)c(OC)cc2c1=O (configuration not stated) | >57 | i
CCS(=O)(=O)Nc1ccc2c(c1)N(C(C)=O)c1ccccc1CC2 | >57 | i
COc1ccc(CNc2nc3nc(-c4ccccc4)cc(=O)n3[nH]2)cc1OC | >57 | i
CCOC(=O)c1sc(NC(=O)CSc2nc(-c3ccco3)cc(C(F)(F)F)n2)c(C#N)c1C | >57 | i
COc1ccccc1-n1c(SCC(=O)N2CCCC2)nc2cccnc21 | >57 | i
NS(=O)(=O)c1cc2c(cc1Cl)N[C@@H](CC1CCCC1)NS2(=O)=O | nt | i
Cc1oc(-c2ccccc2)nc1C(=O)OCC(=O)NC(=O)NCC(C)C | >57 | i
O=C(c1cccc(S(=O)(=O)NCCOc2ccccc2)c1)N1CCN(c2ncccn2)CC1 | >57 | i
NC(=O)Cn1c(S(=O)(=O)Cc2ccccc2)nc2ccccc21 | >57 | i
CCSc1nnc(NC(=O)C2CC=CCC2C(=O)O)s1 (configuration not stated) | nt | i
COc1ccc(-c2nc(CS(=O)(=O)CC(=O)Nc3ccc(Cl)cc3)c(C)o2)cc1 | nt | i
O=C1CC(N2CCC(C(=O)N3CCCCC3)CC2)C(=O)N1 (configuration not stated) | >57 | i
COCCn1c(=O)c(-c2ccc(OC)cc2)nc2cnc(Oc3ccccc3)nc21 | nt | i
COc1ccc(NC(=O)CN(c2ccc(C)cc2)S(C)(=O)=O)c(OC)c1 | nt | i
CCCN(CC1CC1)c1nc(C)nc(Nc2c(Cl)cc(Cl)cc2Cl)c1Cl | nt | i
CN(C)C(=O)c1ccc(-c2nccc(NCc3cccnc3)n2)cc1 | nt | i
O=c1cc(-c2ccccc2)oc2c1ccc1ccccc12 | nt | i
COc1ccc(C(=O)N2CCC3(CCN(Cc4cc(C(F)(F)F)cc(C(F)(F)F)c4)CC3)CC2)cc1 | nt | i
CCC(C)c1ccc(O)c(NC(=O)c2cccnc2)c1 (configuration not stated) | >57 | i
COc1ccc(C(=O)Nc2cccc(C(C)=O)c2)cc1OC | nt | i
COc1ccc(-c2ccc(CCC(=O)O)n2NC(=O)c2cccs2)cc1 | >57 | i
Cc1cc(C)c(S(=O)(=O)N2CCN(CCO)CC2)c(C)c1 | nt | i
CCn1c(=O)c2cc(C(=O)Nc3cc(C)on3)sc2c2ccccc21 | nt | i
C=CCN1CCc2cc(O)c(O)cc2[C@H](c2ccccc2)C1 | nt | i
COC(=O)c1cn(CC(=O)NCc2cccs2)c2ccccc12 | >57 | i
COc1ccc(OC)c(CCNC(=O)CS(=O)(=O)Cc2nc(-c3ccccc3C)oc2C)c1 | >57 | i
Cn1c(=O)c2c(ncn2CC(=O)Nc2nnc(Cc3ccccc3)s2)n(C)c1=O | ? | i
COc1ccccc1C1C2CCCCC2(O)CCN1CC(=O)Nc1ccccc1 (configuration not stated) | >57 | i
Cn1c(=O)[nH]c(=O)c2c1nc(SCCN1CCOCC1)n2Cc1ccccc1 | >57 | i
COc1ccc(C(CC(=O)NC(C)(C)C)n2cccc2)cc1 (configuration not stated) | >57 | i

Carrying on.
SMILES | PK Bst | YjeE inh
Cc1ccnc(NC(=O)Nc2ccc3c(c2)N(C)C(=O)CS3)c1 | i | i
Cc1ccc2c(c1)c1c(n2C)C(C(N)=O)CCC1 (configuration not stated) | >57 | i
Cc1ccc(S(=O)(=O)C(C#N)c2nc3ccccc3nc2OC(C)C)cc1 (configuration not stated) | >57 | i
O=C(COC(=O)c1cncc(Br)c1)NCCC1=CCCCC1 | >57 | i
COC(=O)c1ccccc1NC(=O)CSc1nccn1C | >57 | i
O=c1c(CCc2ccccc2)nc2cnc(Nc3ccccc3)nc2n1C[C@H]1CCCO1 | nt | i
COc1ccccc1NC(=O)N(Cc1ccccc1)c1ccccn1 | >57 | i
O=C(CSc1nc2ccccc2n1CC(=O)N1CCCC1)N1CCN(C(=O)c2ccco2)CC1 | >57 | i
COc1cc(NC(=O)CN2CCN(S(=O)(=O)c3ccc(C(C)C)cc3)CC2)cc(OC)c1 | >57 | i
CCOc1ccccc1-c1nc(-c2ccc(NC(=O)c3ccc(Br)o3)cc2)no1 | >57 | i
COc1ccc(Cl)cc1NC(=O)C1CSC(c2ccncc2)=N1 (configuration not stated) | nt | i
O=C(O)CN1C(=O)COc2cc(S(=O)(=O)N3CCCC3)ccc21 | nt | i
NC1=NC(c2ccc(Br)cc2)n2c(nc3ccccc32)N1 (configuration not stated) | >57 | i
CC(=O)Nc1ccc(NC(=O)Cn2cc3c(n2)CCCC3)cc1 | >57 | i
COc1ccc(CCN2C(=O)CC(Nc3ccc(N4CCOCC4)cc3)C2=O)cc1OC (configuration not stated) | >57 | i

One compound at a time, as listed above.
`Cc1ccnc(NC(=O)Nc2ccc3c(c2)N(C)C(=O)CS3)c1` is listed as PK Bst = i; YjeE inh = i
`COc1ccc(Cl)cc1NC(=O)C1CSC(c2ccncc2)=N1` (configuration not stated) is listed as PK Bst = nt; YjeE inh = i
`CC(=O)Nc1ccc(NC(=O)Cn2cc3c(n2)CCCC3)cc1` is listed as PK Bst = >57; YjeE inh = i

The results go on:
SMILES | PK Bst | YjeE inh
COc1ccccc1CN(Cc1ccco1)S(=O)(=O)c1ccc(-n2cnnn2)c(OC)c1 | >57 | i
O=C1C2=C(c3ccccc31)[N+](=O)[C@@H]1CCCC[C@@H]1N2[O-] | >57 | i
COc1ccccc1NC(=O)Cc1noc(CSc2cc(C)c3ccccc3n2)n1 | i | i
CN1CCc2c(sc3nc(SCC(N)=O)n(-c4ccccc4)c(=O)c23)C1 | >57 | i
COc1ccc(C)cc1S(=O)(=O)N(CC(=O)O)c1ccc(F)cc1 | >57 | i
O=C1CCCc2nc(N3CCCCC3)sc21 | >57 | i
Cn1c(C(=O)N2COCC2(C)C)cc2c(=O)n3ccccc3nc21 | >57 | i
COCCn1c(=O)[nH]c2cc(C(=O)OC)ccc2c1=O | >57 | i
CCSc1nnc(NC(=O)Cc2ccc(OC)c(S(=O)(=O)N3CCOCC3)c2)s1 | >57 | i
Cc1cc(O)c(-c2cc(C(=O)Nc3ccc(S(=O)(=O)N4CCOCC4)cc3)[nH]n2)cc1C | >57 | i
COc1ccccc1CC(=O)Nc1ccc(-c2nnc(-c3ccco3)o2)cc1 | nt | i
Cc1sc2nc(-c3ccco3)oc(=O)c2c1C | >57 | i
CC1(C)Oc2ccc(C(=O)NC3CCCC3)cc2N(CC(=O)NC2CCCCC2)C1=O | >57 | i
COc1ccc(Oc2ncc3nc(-c4cccc(C#N)c4)c(=O)n(Cc4cccc(OC)c4)c3n2)cc1 | nt | i
Cc1cc(C)cc(N(CC(=O)NCc2ccco2)C(=O)CCC(=O)Nc2ccccn2)c1 | >57 | i

Reformatted: results already given.
Value order – PK Bst	YjeE inh
COc1ccccc1CC(=O)Nc1ccc(-c2nnc(-c3ccco3)o2)cc1
 : nt	i
Cc1cc(C)cc(N(CC(=O)NCc2ccco2)C(=O)CCC(=O)Nc2ccccn2)c1
 : >57	i

Further structures
SMILES | PK Bst | YjeE inh
O=C(/C=C/Nc1ccc(F)cc1)c1ccco1 | 3.7* | i
COC(=O)c1ccc(NC(=O)CN(C2CCCCC2)S(C)(=O)=O)cc1 | >57 | i
O=C(c1cc2nc(-c3ccccc3)cc(C(F)(F)F)n2n1)N1CCOCC1 | >57 | i
COC(=O)[C@@H]1C[C@H]1[C@@H](NS(=O)(=O)c1ccc2ccccc2c1)c1ccccc1 | nt | i
CCCCC(=O)Nc1ccc(Cl)cn1 | >57 | i
Cc1nc(SCCO)c2oc3ccccc3c2n1 | i | i
Cc1nnc(NC(=O)CSc2nnc(Cc3cccn3C)n2-c2cccc(C)c2C)s1 | nt | i
CN(C)Cc1ccccc1-c1cncnc1NCc1ccccc1 | nt | i
CCc1ccc(NC(=O)CS(=O)CC(=O)NCC2OCCc3ccccc32)cc1 (configuration not stated) | >57 | i
COCC(=O)Nc1nc2n(n1)C(c1ccccc1)CC(c1ccc(OC)cc1)N2 (configuration not stated) | >57 | i
COC(=O)c1ccc(Cn2cnc3c(sc4nc(N5CCOCC5)c5c(c43)CCCC5)c2=O)o1 | >11 | nt
CCn1c2ccccc2c2cc(C3N=C(N)Nc4nc5ccccc5n43)ccc21 (configuration not stated) | >57 | i
COc1cccc(C(c2nnnn2Cc2ccc(F)cc2)N2CCC(C(N)=O)CC2)c1OC (configuration not stated) | >57 | i
O=C(c1ccco1)N1CCC2(CC1)CN(Cc1cc(C(F)(F)F)cc(C(F)(F)F)c1)C2 | nt | i
Cc1cccc2cc(C(c3nnnn3Cc3ccccc3)N3CCN(c4ccccc4)CC3)c(=O)[nH]c12 (configuration not stated) | >57 | i

Structures listed so far printed as active in PK Bst.
SMILES | PK Bst | YjeE inh
O=C(/C=C/Nc1ccc(F)cc1)c1ccco1 | 3.7* | i

Going on with the list.
SMILES | PK Bst | YjeE inh
COc1ccccc1CNc1ncnc2ccc(-c3c(C)noc3C)cc12 | nt | i
CCCC(=O)NCCCCNC(=O)CCC | nt | i
CC(C)OC(=O)CC1=NC(=O)CS1 | >26 | nt
Cc1cc(C(=O)CSc2nnnn2-c2ccc(Cl)cc2)c(C)n1CC1CCCO1 (configuration not stated) | >57 | i
COc1cccc(-c2nccc(NCc3ccccc3OC)n2)c1 | nt | i
O=C1OC(c2ccc(O)c(-c3ccccc3)c2)(c2ccc(O)c(-c3ccccc3)c2)c2c(Cl)c(Cl)c(Cl)c(Cl)c21 | nt | i
CCOCc1nc(N)[nH]c(=O)c1Cc1ccc(OC(C)C)cc1 | >26 | nt
COc1cc(OC)cc(-c2nnc(SCC(=O)N3c4ccccc4Sc4ccccc43)o2)c1 | >57 | i
COc1cccc(Nc2ncc3nc(-c4cccs4)c(=O)n(C[C@H]4CCCO4)c3n2)c1 | nt | i
Cn1c(=O)c(=O)n(C)c2cc(S(=O)(=O)N3CCC(Cc4ccccc4)CC3)ccc21 | >57 | i
COc1ccc2nc3oc(C(=O)NCc4cccs4)cc3cc2c1 | >57 | i
O=c1cc(N2CCc3ccccc3C2)[nH]c(=O)n1Cc1ccc(F)cc1 | >57 | i
CC(=O)c1ccc(OCCCC(=O)OCC(=O)N2CCN(c3ccccc3)CC2)cc1 | >57 | i
CSc1nc2c(c(=O)n1Cc1ccccc1)SC(C)C2 (configuration not stated) | >57 | i
Cc1ccc2c(c1)[C@H]1OCC[C@H]1[C@@H](c1ccncc1)N2 | nt | i
CC1(C(=O)CSc2nc3ccccc3s2)CCC(=O)O1 (configuration not stated) | 10* | nt
COc1ccc2cc(C(c3nnnn3C(C)(C)C)N3CCc4ccccc4C3)c(=O)[nH]c2c1 (configuration not stated) | >57 | i
CCOC(=O)Cc1csc(NC(=O)c2cnc3scc(C)n3c2=O)n1 | >57 | i
COc1ccc(-c2[nH]c(-c3cccc(OC)c3)nc2SCC(=O)NCc2ccco2)cc1 | nt | i
